BJeLR viability: BJeLR cell viability loss, primary screen, luminescence, CellTiterGlo ATP. BJeLR fibroblasts viability, 48 h; HRASV12, hTERT and SV40 LT/ST transformed. 0.64% of 30,000 active. viability loss activity score, % (concentration not given with the values). AID 2275, 2010; in the data active means viability loss activity score above about 50%; about a fifth of its hits are not listed in these tables;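 further: higher score means fewer live cells and less ATP luminescence; stock transfer was 50 or 100 nL into about 30 µL; 0% = vehicle wells and 100% = a reference killing control; one replicate is shown; the record names a cut of 85%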
A1 inhib: inducers of caspase activity in MEF A1-2A-BIM cells, primary screen, A1 inhibitor project, cell-based, CaspaseGlo luminescence. caspase-Glo luminescence, 3 h; percent of clofoctol signal, DMSO as zero. caspase activation, % (concentration not given with the values). 0.51% of 21,000 active. AID 2241, 2010;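 active means most replicate scores above 10, or exactly half above 10 with mean activity above 10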;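 further: effector caspase 3 and 7 activity cleaving a DEVD luciferin substrate; 50 nL library stock added to about 30 µL; numbers are from one replicate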
* = called active by the depositor; nt = no result given. These rows are one share of the data (hit frequency here may not be typical).

SMILES | BJeLR viability | A1 inhib
C[C@@H]1CN([C@H](C)CO)C(=O)c2cccc(NS(=O)(=O)c3cn(C)cn3)c2O[C@@H]1CN(C)Cc1ccc(C(=O)O)cc1 | 3.6 | nt
C[C@H]1CN([C@@H](C)CO)C(=O)c2cccc(NC(=O)c3ccncc3)c2O[C@H]1CN(C)S(=O)(=O)c1cn(C)cn1 | -0.2 | nt
C[C@H]1CN([C@@H](C)CO)C(=O)c2cc(NC(=O)C3CCCCC3)ccc2O[C@H]1CN(C)C | -5.6 | 0.7
C=CCNC(=O)CC1CCCCC1 | 1.2 | -0.8
C[C@H]1CN([C@@H](C)CO)C(=O)c2cccc(NS(=O)(=O)c3ccccc3)c2O[C@@H]1CN(C)Cc1ccc(Cl)c(Cl)c1 | -2.9 | nt
C=CCNC(=S)N1CCN(C(c2ccccc2)c2ccccc2)CC1 | -0.8 | -0.8
COc1ccc(S(=O)(=O)Nc2cccc3c2O[C@@H](CN(C)S(=O)(=O)c2ccc(F)cc2)[C@@H](C)CN([C@H](C)CO)C3=O)cc1 | 0.2 | nt
CC(C)(C)c1cc(C(C)(C)C)c2oc(C(=O)O)cc(=O)c2c1 | 0.4 | 0.8
COc1ccc(S(=O)(=O)Nc2cccc3c2O[C@H](CN(C)CC2CC2)[C@@H](C)CN([C@@H](C)CO)C3=O)cc1 | 6.8 | nt
CCN(/C=N/c1sc2c(c1C#N)CCCCC2)CC | -5.8 | -4.2
COc1cc(O)c(C)c(O)c1 | -1.7 | 0.5
CC(=O)O[C@@H]1C[C@@]2(C)C(CC[C@@H]2C(C)=O)C2CCC3=CC(=O)CC[C@]3(C)C21 (some centres undefined) | 4.8 | 0.6
Cc1ccc(S(=O)(=O)Nc2cccc3c2O[C@@H](CN(C)Cc2ccc4c(c2)OCO4)[C@@H](C)CN([C@H](C)CO)C3=O)cc1 | 1.4 | nt
C=C1C(=O)O[C@@H]2C[C@@]3(C)[C@@H](O)C[C@@H](O)C(=C)[C@@H]3C[C@H]12 | 0.0 | -1.1
Cc1ccc(/C=N/N(C)S(=O)(=O)c2ccc(C)cc2)cc1 | 5.8 | -0.3
C=CCn1c(SCc2nnc(SCc3ccc(F)cc3)n2C)nnc1-c1ccccc1 | -3.3 | 0.3
C[C@@H]1CN([C@H](C)CO)C(=O)c2cccc(NS(=O)(=O)c3cccs3)c2O[C@H]1CN(C)C(=O)NC1CCCCC1 | -3.7 | nt
Cc1noc(C)c1NC(=O)Nc1ccc2c(c1)C(=O)N([C@H](C)CO)C[C@@H](C)[C@H](CN(C)CC1CCCCC1)O2 | -3.0 | -0.2
COc1ccc(S(=O)(=O)N(C)C[C@@H]2Oc3ccc(NS(=O)(=O)c4cn(C)cn4)cc3C(=O)N([C@H](C)CO)C[C@@H]2C)cc1 | -3.9 | 0.3
CCOC(=O)C(C)Sc1nc2c([nH]c3ccccc32)c(=O)n1-c1ccc(Cl)cc1 (centres undefined) | -1.0 | nt
COc1ccc(S(=O)(=O)Nc2cccc3c2O[C@@H](CN(C)Cc2ccc(C(F)(F)F)cc2)[C@@H](C)CN([C@H](C)CO)C3=O)cc1 | -1.8 | nt
O=C(c1ccc2c(c1)CCO2)N1CCN(C(c2ccccc2)c2ccccc2)CC1 | 0.4 | -0.2
C[C@@H]1CN([C@@H](C)CO)C(=O)c2cc(NC(=O)Cc3cn(C)c4ccccc34)ccc2O[C@@H]1CN(C)S(=O)(=O)c1ccc(F)cc1 | 1.9 | 0.4
COc1ccc(NC(=O)N(C)C[C@@H]2Oc3ccc(NC(=O)NC4CCCCC4)cc3C(=O)N([C@@H](C)CO)C[C@H]2C)cc1 | -0.3 | 0.4
C[C@H](CO)N1C[C@H](C)[C@@H](CN(C)Cc2ccccc2)Oc2ccc(NC(=O)Cc3ccccc3)cc2C1=O | 4.1 | -0.5

Some of these compounds in order of their number in A1 inhib, descending.
smiles,A1 inhib
CC(=O)O[C@@H]1C[C@@]2(C)C(CC[C@@H]2C(C)=O)C2CCC3=CC(=O)CC[C@]3(C)C21 (some centres undefined),0.6
C=CCn1c(SCc2nnc(SCc3ccc(F)cc3)n2C)nnc1-c1ccccc1,0.3
Cc1noc(C)c1NC(=O)Nc1ccc2c(c1)C(=O)N([C@H](C)CO)C[C@@H](C)[C@H](CN(C)CC1CCCCC1)O2,-0.2
C=C1C(=O)O[C@@H]2C[C@@]3(C)[C@@H](O)C[C@@H](O)C(=C)[C@@H]3C[C@H]12,-1.1
CCN(/C=N/c1sc2c(c1C#N)CCCCC2)CC,-4.2

Further compounds:
SMILES | BJeLR viability | A1 inhib
N/N=C1\CCCc2c1[nH]c1ccc(C(=O)NN)cc21 | -1.1 | nt
C[C@H]1CN([C@@H](C)CO)C(=O)c2cc(NC(=O)C3CCCCC3)ccc2O[C@@H]1CN(C)C(=O)Nc1ccc2c(c1)OCO2 | -1.6 | -0.3
C[C@@H]1CN([C@@H](C)CO)C(=O)c2cc(NS(=O)(=O)c3ccc(F)cc3)ccc2O[C@H]1CN(C)CC1CC1 | 1.1 | 0.2
C[C@@H]1CN([C@@H](C)CO)C(=O)c2cc(NC(=O)c3ccncc3)ccc2O[C@@H]1CN(C)CC1CCCCC1 | 1.7 | 0.1
COc1ccc(S(=O)(=O)Nc2cccc3c2O[C@@H](CN(C)C(=O)NC(C)C)[C@H](C)CN([C@H](C)CO)C3=O)cc1 | -1.3 | nt
CC1(C)CC[C@@]2(C(=O)O)C(C1)C1=CCC3[C@@]4(C)CC[C@H](O[C@@H]5O[C@H](C(=O)O)[C@@H](O[C@H]6OC[C@](O)(CO)[C@H]6O)[C@H](O)[C@H]5O)C(C)(C)C4CC[C@@]3(C)[C@]1(C)C[C@H]2O (some centres undefined) | 0.3 | -0.1
N#CCc1nc(=O)c2ccccc2s1 | -2.9 | -2.4
Cc1cc(C)c2c(n1)sc1c(=O)n(CC(=O)c3ccccc3)cnc12 | -1.5 | 0.0
Cc1cc(C(=O)Nc2cccc3c2O[C@@H](CN(C)S(C)(=O)=O)[C@H](C)CN([C@@H](C)CO)C3=O)n(C)n1 | 4.0 | nt
COC(=O)c1ccc(COc2cc(C)cc(C)c2)o1 | 3.3 | nt
C[C@H](CO)N1C[C@H](C)[C@@H](CN(C)Cc2ccc(-c3ccccc3)cc2)Oc2c(NS(=O)(=O)c3ccc(F)cc3)cccc2C1=O | -3.0 | nt
CCOC(=O)c1oc2ccc(C=NC(C)(C)C)c(Cl)c2c1C | -2.3 | -3.0
C=CCN(C(=O)c1cc2c(=O)oc3ccc(C)cc3c2s1)c1ccccc1 | -1.6 | nt
C[C@H](CO)N1C[C@H](C)[C@H](CN(C)CC2CC2)Oc2ccc(NC(=O)CCCN(C)C)cc2C1=O | -3.3 | -0.4
CC12CCCCC1(O)N(O)C(C(=O)c1ccccc1)=N2 (centres undefined) | 2.9 | 0.0
CCCOc1ccc(N)cc1N | -1.0 | -0.8
C[C@@H]1CN([C@H](C)CO)C(=O)c2cccc(NC(=O)C3CC3)c2O[C@@H]1CN(C)Cc1ccc2c(c1)OCO2 | -11 | nt
CCOC(=O)N1CCC(NC(=O)c2oc3c(c2C)-c2[nH]ncc2CC3)CC1 | -4.7 | 0.5
COc1ccc(S(=O)(=O)Nc2cccc3c2O[C@@H](CN(C)Cc2ccncc2)[C@H](C)CN([C@H](C)CO)C3=O)cc1 | 0.0 | nt
C[C@H]1CN([C@@H](C)CO)C(=O)c2cc(NC(=O)CCCCCC(=O)Nc3ccccc3N)ccc2O[C@H]1CN(C)C(=O)Nc1ccc(C(F)(F)F)cc1 | -2.7 | nt
O=C(Cn1ncc2ccccc21)N1CCc2ccccc21 | -0.2 | nt
Cc1ccc(S(=O)(=O)N(C)C[C@@H]2Oc3c(NS(=O)(=O)c4cn(C)cn4)cccc3C(=O)N([C@H](C)CO)C[C@H]2C)cc1 | 2.2 | nt
C[C@@H]1CN([C@H](C)CO)C(=O)c2cc(NC(=O)C3CCCCC3)ccc2O[C@H]1CN(C)C(=O)Nc1ccccc1 | 2.5 | 0.4
CCCc1cc2c(cc1NC(=O)C(C)(C)C(=O)Nc1cc3c(cc1CCC)OCO3)OCO2 | 0.3 | 0.4
CCCCC[C@@H](O)CC(=O)CCc1ccc(O)c(OC)c1 | 0.4 | 0.5
SMILES | BJeLR viability | A1 inhib
Cc1ccc(S(=O)(=O)N(C)C[C@@H]2Oc3ccc(NC(=O)Cn4cnnn4)cc3C(=O)N([C@H](C)CO)C[C@H]2C)cc1 | -0.1 | 0.1
CNC[C@@H]1Oc2ccc(NC(=O)Nc3ccc(F)cc3)cc2C(=O)N([C@@H](C)CO)C[C@H]1C | -0.8 | 0.0
C[C@@H]1CN([C@@H](C)CO)C(=O)c2cc(NC(=O)CCCN(C)C)ccc2O[C@@H]1CN(C)Cc1ccccc1 | 2.4 | -0.1
O=C(c1ccc2c(=O)n(CCC3=CCCCC3)c(=S)[nH]c2c1)N1CCCC1 | 6.0 | 1.1
O=C1C(C=Nc2ccccc2O)=C(O)c2ccccc21 | -3.8 | nt
C[C@@H]1CN([C@@H](C)CO)C(=O)c2cccc(NC(=O)NC3CCCCC3)c2O[C@H]1CN(C)Cc1ccc(C(=O)O)cc1 | 0.7 | nt
O=C(NCn1ccc(=O)[nH]c1=S)c1ccccc1 | 0.4 | -0.3
Cc1cccc(CSc2nc3c(c(=O)[nH]2)C(C(C)C)C2=C(CC(C)(C)CC2=O)N3)c1 (centres undefined) | -1.2 | nt
C[C@@H]1CN([C@@H](C)CO)C(=O)c2cc(NC(=O)Nc3ccc(C(F)(F)F)cc3)ccc2O[C@H]1CN(C)C(=O)Nc1cccc2ccccc12 | -9.5 | -0.4
C[C@H]1CN([C@@H](C)CO)C(=O)c2cccc(NC(=O)C3CCOCC3)c2O[C@H]1CN(C)C(=O)Nc1ccc(F)cc1 | 0.6 | nt
CN(C(=O)c1ccccc1)C(=O)N(C)C(=O)c1ccccc1 | -4.8 | -0.7
Cc1cc(C(=O)Nc2cccc3c2O[C@H](CN(C)C)[C@H](C)CN([C@H](C)CO)C3=O)n(C)n1 | 0.9 | nt
CN1C(=O)c2ccccc2NC(=O)/C1=C\c1ccccc1 | 3.9 | -0.4
COc1ccc(CN(C)C[C@@H]2Oc3ccc(NC(=O)Cn4cnnn4)cc3C(=O)N([C@@H](C)CO)C[C@H]2C)cc1 | -3.6 | -0.7
COc1ccc(NC(=O)Nc2ccc3c(c2)C(=O)N([C@@H](C)CO)C[C@H](C)[C@H](CN(C)C(=O)NC2CCCCC2)O3)cc1 | -8.4 | -0.4
O=C(NCCc1ccccc1)N1c2ccccc2Sc2ccccc21 | -0.5 | 0.0
Cc1noc(C)c1NC(=O)Nc1cccc2c1O[C@@H](CN(C)CC1CC1)[C@H](C)CN([C@@H](C)CO)C2=O | -1.7 | nt
Cc1noc(C)c1NC(=O)Nc1cccc2c1O[C@H](CN(C)CC1CC1)[C@H](C)CN([C@H](C)CO)C2=O | -1.5 | nt
Cc1ccc(NC(=O)CC(O)(C(F)(F)F)C(F)(F)F)cc1 | 9.8 | nt
Cc1cccc2nc(Cn3ccccc3=O)cn12 | -2.0 | 1.3
Cc1ccc(S(=O)(=O)N(C)C[C@H]2Oc3ccc(NC(=O)c4ccncc4)cc3C(=O)N([C@H](C)CO)C[C@H]2C)cc1 | 6.3 | 1.0
CCOc1ccc(NC(=O)CCc2ccc(OC)cc2)cc1 | -3.2 | -0.2
C[C@@H]1CN([C@H](C)CO)C(=O)c2cc(NC(=O)Nc3ccccc3)ccc2O[C@@H]1CN(C)C(=O)Nc1ccccc1 | 2.2 | -0.6
Cc1[nH]n(-c2ccccc2)c(=O)c1Cc1c(Cl)cccc1Cl | 0.7 | -0.4
CC(C)NC(=O)Nc1ccc2c(c1)C(=O)N([C@H](C)CO)C[C@@H](C)[C@@H](CN(C)Cc1ccccc1)O2 | -2.9 | 0.1

An excerpt of these results, with each value named.
smiles: CNC[C@@H]1Oc2ccc(NC(=O)Nc3ccc(F)cc3)cc2C(=O)N([C@@H](C)CO)C[C@H]1C
  BJeLR viability: -0.8
  A1 inhib: 0.0
smiles: Cc1cccc2nc(Cn3ccccc3=O)cn12
  BJeLR viability: -2.0
  A1 inhib: 1.3

Other entries.
SMILES | BJeLR viability | A1 inhib
Cc1ccc(Sc2c(CS(=O)(=O)c3ccccc3)[nH]c3ccccc23)cc1 | 0.8 | 0.6
C[C@H](NC[C@H](O)CP(=O)(O)CC1CCCCC1)c1ccc(Cl)c(Cl)c1 | 2.2 | -0.7
C[C@H](CO)N1C[C@H](C)[C@@H](CN(C)Cc2ccc(C(=O)O)cc2)Oc2c(NC(=O)Nc3ccc4c(c3)OCO4)cccc2C1=O | 1.7 | nt
CC(C)NC(=O)N(C)C[C@H]1Oc2c(NC(=O)C3CCCCC3)cccc2C(=O)N([C@H](C)CO)C[C@H]1C | 24 | nt
CNC(=O)CS(=O)(=O)c1cn(CC(=O)N2CCCC2)c2ccccc12 | 2.1 | 0.8
C[C@H]1CN([C@@H](C)CO)C(=O)c2cc(NC(=O)NC3CCCCC3)ccc2O[C@H]1CN(C)C(=O)NC1CCCCC1 | -0.5 | -1.3
Cc1c(C#N)c(SCc2cccc(C(F)(F)F)c2)nc2ccccc12 | -0.9 | -0.4
COc1ccc(NC(=O)Nc2ccc3c(c2)C(=O)N([C@@H](C)CO)C[C@H](C)[C@@H](CN(C)C)O3)cc1 | -1.2 | 0.0
C[C@@H]1CN([C@H](C)CO)C(=O)c2cc(NS(=O)(=O)c3ccccc3)ccc2O[C@H]1CN(C)S(=O)(=O)c1ccccc1 | -1.2 | 2.3
Cc1cc(C)n(-c2nncc(-c3ccccc3)n2)n1 | 5.3 | -4.4
CC(C)NC(=O)Nc1cccc2c1O[C@@H](CN(C)S(=O)(=O)c1ccc(F)cc1)[C@H](C)CN([C@@H](C)CO)C2=O | -5.7 | nt

Source: PubChem
